Vaccinia mCherry: inhibitors of vaccinia virus infection (mCherry reporter signal). Vaccinia virus mCherry reporter infection, fluorescence; about a quarter of the inactives have no number. Potency, µM (highest dose often 36.5 µM), for the others: top-dose activity change, negative = inhibition, most hits filed as inhibitors. 0.63% of 310,000 active. AID 720579; active = well fitted inhibition curve with a large enough effect; inconclusive = small, poorly fitted or top-dose-only effect; inactive = no such curve, though single readings can be large or run the other way; tested in A549 cells; note: nearly all actives have a fitted effect of over 35% in size; inactives centre near -10
VACV Venus inh: inhibitors of vaccinia virus (Venus reporter). 0.46% of 330,000 active. Vaccinia virus Venus reporter expression, fluorescence. Potency, µM (titrated, usually from 36.5 µM), without a hit: at the top dose activity change, negative = inhibition, most hits filed as inhibitors; active means well fitted inhibition curve with a large enough effect; inconclusive means small, poorly fitted or top-dose-only effect; inactive means no such curve, though single readings can be large or run the other way; tested in A549 cells; note: nearly all actives have a fitted effect of over 30% in size; inactives centre near -10
The depositor's hits bear a star; i = inactive; ? = inconclusive; · = no result given; [ ] = dose if it differs, or a comment. % is set by controls: 0 for no effect and ±100 for the full control effect; potency is the fitted concentration of half-maximal effect. Rows were taken by chance; 0.88% or so of the library scored in one or more.

| SMILES | Vaccinia mCherry | VACV Venus inh |
| --- | --- | --- |
| CCCCNCCCCOc1ccccc1 | -5.8% | -5.6% |
| CCCc1nc(NC(=O)c2ccccc2)nc(NC(=O)c2ccccc2)n1 | -11.3% | -1.3% |
| CCCCNS(=O)(=O)c1ccc2nc(-c3cccnc3)cc(C(=O)NC(C)C)c2c1 | -3.8% | ? |
| COc1c(F)c(F)c(C(=O)O)c(Nc2ccc(C)cc2C)c1F | -7.8% | -0.1% |
| COC(=O)C(C)Sc1nc(NCc2ccccc2)nc(N(C)C)n1 (centres undefined) | i | -9.8% |
| COc1ccc(-c2ccc(=O)n(CC(=O)Nc3ccc(C)cc3C)n2)cc1 | -6.9% | -3.8% |
| Cc1ccc(-c2nnn(CC(=O)N(CC3CCCO3)C(C(=O)NC3CCCC3)c3ccc(O)cc3)n2)o1 (centres undefined) | -7.8% | -15.7% |
| O=C(c1ccc2c(=O)n3c(nc2c1)CCCCC3)N1CCCCC1 | -6.9% | -10.0% |
| Cc1ccccc1OCCn1c(CCNC(=O)C(C)C)nc2ccccc21 | -16.6% | -2.7% |
| O=C(NNC(=S)Nc1ccccc1)c1cccc(Br)c1 | -12.5% | -0.5% |
| O=C(Nc1ccncc1)c1sc2ccccc2c1Cl | -16.7% | -17.1% |
| C(=C\c1ccccc1)/C=N/Nc1nc(N2CCOCC2)nc(N2CCOCC2)n1 | · | -7.6% |
| O=C(Nc1nnc(CCS(=O)(=O)c2ccc3ccccc3c2)s1)c1cccs1 | -7.9% | -1.9% |
| CC1(C(=O)NS(=O)(=O)c2cccc(OC(F)F)c2)CCN1C(=O)c1ccco1 (centres undefined) | 34.9%[activator] | -12.6% |
| O=C(Nc1ccc(C(=O)O)cc1)Nc1ccc([N+](=O)[O-])cc1 | i | -1.9% |
| Cc1ccc2nc(N(CCCN(C)C)C(=O)c3ccc(S(=O)(=O)N4CCCCCC4)cc3)sc2c1 | -27.4% | ? |
| COc1ccc(OC)c(-c2nc3c(C#N)c[nH]n3c2NC2CCCCC2)c1 | ? | ? |
| Cn1c(N/N=C\c2cccc(O)c2)cc(=O)n(C)c1=O | -25.0% | -18.1% |
| Cc1ccc(C2=Nc3ccccc3NC(C)(c3ccc(C)o3)C2)o1 (centres undefined) | · | -2.2% |
| CCOC(=O)c1cc(C#N)c(SC(C(=O)N2CCCCC2)c2ccccc2)nc1C (centres undefined) | 24.4% | -11.1% |
| Cc1cc(C)cc(NC(=S)NC2CC3CCC(C2)N3Cc2ccco2)c1 (centres undefined) | -26.8% | -19.1% |
| Cc1ccc(C(C)C)c(OCC(=O)NCC2(N3CCOCC3)CCCCC2)c1 | -16.5% | -23.3% |
| COC(=O)c1c(NC(=O)COC(=O)CNC(=O)C2CCCCC2)sc(C)c1C | -13.0% | -14.6% |
| Cc1ccc(N2CC(=O)N(NC(=O)c3sc4nc(C)cc(C)c4c3N)CC2=O)cc1 | i[7.34 µM] | -6.6%[7.34 µM] |
| CCOc1ccc(CNC(=O)c2cc3c(=O)n(C)c4ccccc4c3s2)cc1 | ? | ? |
| CC(CC(=O)Nc1nccs1)c1ccccc1 (centres undefined) | -5.0% | -5.9% |
| O=C(Nc1ccc(OC(F)(F)F)cc1)C1CCCCN1S(=O)(=O)c1ccccc1 (centres undefined) | -7.2% | -9.1% |
| O=C(c1coc(=O)c(Br)c1)N1CCCc2ccccc21 | -16.9% | -11.9% |
| CC1(C(=O)O)CCC(C(=O)N2CCOCC2)C1(C)C (centres undefined) | -12.8% | -7.2% |
| CC(C)N1C(=O)N(c2ccccc2)C(C)(O)CC1(C)C (centres undefined) | -16.4% | -13.5% |
| CCNC(=O)C1CCCN(C(=O)C(c2ccccc2)c2ccccc2)CC1 (centres undefined) | 35.2%[activator] | -8.6% |
| Cc1ccc(C)c2c1cc(C)c1nnc(SCC(=O)Nc3nc4c(s3)CCCC4)n12 | -18.9% | -20.3% |
| COC(=O)c1ccc(OCC(=O)N2CCCc3ccccc32)cc1 | -8.5% | -4.9% |
| Cc1nc(NC(=O)CSc2nnc(N)s2)c(Cl)cc1Cl | -6.1% | -0.1% |
| Cc1cc(C)n2nc(C(=O)OCC(=O)N(C)C3CCCCC3)nc2n1 | -0.3% | -5.5% |
| Cc1cc(=O)n2nc(N3CCC(C(=O)Nc4ccc(Br)c(C)c4)CC3)sc2n1 | 37.2%[activator] | 11.7% |
| O=c1[nH]cnc2c1ncn2-c1ccc(Cl)cc1 | -4.5% | -12.2% |
| Cc1cnc(C(=O)N(CCCn2ccnc2)C2C(=O)Nc3ccccc3N=C2c2ccccc2)cn1 (centres undefined) | 25.3% | -1.1% |
| CC(C)N(Cc1nc(-c2ccccc2)no1)C(=O)c1ccc2c(c1)OCO2 | -9.5% | -3.9% |
| O=C1C=C(N2CCCCCC2)C2(CCCCC2)O1 | -4.0% | -8.5% |
| CCCCc1cc(=O)oc2c(C)c(OCC(=O)N3CCC(C(N)=O)CC3)ccc12 | 10.7% | -10.6% |
| CCOCCCn1c(SCC(=O)Nc2oc(C)c3c(C)n[nH]c(=O)c23)nc2ccccc2c1=O | ? | -9.6% |
| Cc1cccc(NC(=O)c2onc3c2CCCC3)c1C | · | -21.2% |
| Cc1ccc(CCNC(=O)CCCn2c(=O)c3cccn3c3ccc(F)cc32)cc1 | -16.8% | -15.6% |
| OCCN1CCN(c2nc(-c3ccccc3)c3cc(Cl)ccc3n2)CC1 | · | ? |
| CCOc1ncccc1C(=O)N1CCN(S(=O)(=O)c2ccc(Br)cc2Cl)CC1 | -1.3% | -1.9% |
| CN(CCC#N)C(=O)COC(=O)c1ccc2c(=O)n3c(nc2c1)CCC3 | i | -8.7% |
| CC1(C(=O)NCc2ccncc2)Cc2c(-c3cccc(C(F)(F)F)c3)ccnc2O1 (centres undefined) | ? | -25.9% |
| CC(C)C[C@@H](CNCC(=O)[C@H](C)NC(=O)c1[nH]cnc1C(=O)N[C@@H](C)CN)NC(=O)c1nc[nH]c1C(=O)N[C@@H](C)C(=O)O | i | -2.4% |
| CCN(c1ccccc1)S(=O)(=O)c1cnc[nH]1 | -0.3% | -1.4% |
| Cn1c(N)c(C(=O)COC(=O)/C=C/c2ccc(Cl)c(Cl)c2)c(=O)n(C)c1=O | -8.0% | 6.5% |
| COc1cc(/C=C2\C(=N)N3N=C(S(C)(=O)=O)SC3=NC2=O)cc(OC)c1OCCOc1ccccc1C | -11.8% | -9.2% |
| CCN(CC(=O)Nc1cccc(OC)c1)c1ncnc2sc(C)c(C)c12 | -17.0% | -21.7% |
| NS(=O)(=O)c1ccc(NC(=O)COC(=O)c2cc([N+](=O)[O-])ccc2Cl)cc1 | -7.9% | -7.6% |
| COc1cccc(N2CC(C(=O)N3CCC4(CC3)CC(=O)c3ccccc3O4)CC2=O)c1 (centres undefined) | -1.7% | -24.2% |
| Cn1c2ccccc2c(=O)c2c(=O)n(-c3ccc(F)cc3)c(C3CCCCC3)nc21 | -11.9% | -17.4% |
| Cc1cnn2c(C3CC3)ccnc12 | -5.9% | -9.1% |
| O=C(O)c1cc([N+](=O)[O-])cc2c1nnn2O | -2.7% | -10.3% |
| COC(=O)c1ccc(NC(=O)C23CCC(C)(C(=O)O2)C3(C)C)cc1 (centres undefined) | -23.1% | -14.8% |
| CC(C)CN(C)Cc1c(C(=O)N2CCc3ccccc3C2)nc2ccc(Cl)cn12 | -2.0% | -13.8% |

Overlap with the part before: 2 compounds, followed by the next part.
| SMILES | Vaccinia mCherry | VACV Venus inh |
| --- | --- | --- |
| COC(=O)c1ccc(NC(=O)C23CCC(C)(C(=O)O2)C3(C)C)cc1 (centres undefined) | -23.1% | -14.8% |
| CC(C)CN(C)Cc1c(C(=O)N2CCc3ccccc3C2)nc2ccc(Cl)cn12 | -2.0% | -13.8% |
| COc1cc(C(=S)N2CCOCC2)cc(OC)c1OC(=O)c1ccccc1Cl | i | -13.2% |
| Cc1ccc(S(=O)(=O)N2CCC(C(=O)Nc3ccc(S(=O)(=O)N4CCCC4)cc3)CC2)cc1 | -20.5% | -29.3% |
| O=C(NCCn1cc(SCc2ccccc2)c2ccccc21)c1ccccc1F | i | -11.0% |
| CCc1c(C)nc2cc(-c3ccc(OC)c(OC)c3)nn2c1N1CCC(C)CC1 | i | -14.0% |
| CC[C@]12c3[nH]c4cc(-c5ccco5)ccc4c3CCN1C(=O)[C@@H](CC(=O)NCCCn1ccnc1)C[C@@H]2C(=O)N1CCN(C(=O)c2ccco2)CC1 | i | -2.0% |
| O=C(OCc1cccs1)c1ccccc1NS(=O)(=O)c1ccc2c(c1)OCCO2 | i | -13.2% |
| CCOc1ccc(NCc2cccn2-c2nnc(N3CCC(C(=O)NCCc4ccc(OC)c(OC)c4)CC3)s2)cc1 | -12.5% | ? |
| O=C(CSc1nncn1-c1cccnc1)N(c1ccccc1)c1ccccc1 | i | 4.0% |
| C=CCNC(=S)Nc1ccc(OC)c(S(=O)(=O)N2CCOCC2)c1 | -1.5% | -9.7% |
| COc1ccc(OC)c(-c2nc(C)sc2CC(=O)O)c1 | i | 2.4% |
| O=C(NCCCn1ccnc1)/C(=C\c1cccnc1)NC(=O)c1ccccc1Br | -1.2% | -16.7% |
| CNc1nc(C)c([N+](=O)[O-])c(Nc2ccc(OC)cc2)n1 | i | -7.4% |
| CCC1Oc2ccc(C)cc2N(CC(=O)N(Cc2ccncc2)Cc2ccco2)C1=O (centres undefined) | -2.7% | -3.5% |
| COc1ccc(-c2cc(C(=O)Nc3c(C)n(C)n(-c4ccccc4)c3=O)c3ccccc3n2)cc1 | ? | -8.9% |
| CSc1ccccc1NC(=O)CN(c1ccccc1Br)S(C)(=O)=O | -12.4% | -4.5% |
| COc1ccc(NC(=S)N/N=C/c2cccn2Cc2ccc(F)cc2Cl)cc1 | ? | -27.4% |
| O=C(O)Cc1ccc2c(c1)N(S(=O)(=O)c1cccc(C(F)(F)F)c1)CC(C(=O)O)O2 (centres undefined) | -3.0% | -2.1% |
| Cc1nn(C(C)C(=O)N2CCc3ccccc32)c(C)c1[N+](=O)[O-] (centres undefined) | i | -3.1% |
| CCc1nc(SCC(=O)N2CCCC2)c2ccccc2n1 | ? | -27.0% |
| COc1cccc2c1cc1c(=O)n(CC(=O)NC3CC3)nc(C)n12 | i | -13.3% |

The list continues.
SMILES	Vaccinia mCherry	VACV Venus inh
COc1ccc(-n2cc(-c3ccccc3)c3c(NCCc4ccc(OC)c(OC)c4)ncnc32)cc1	-19.2%	-21.3%
CCNS(=O)(=O)c1ccc(NS(=O)(=O)c2cc(C)ccc2C)cc1	·	?
Cc1ccc(-n2nc3c(=O)n(CC(=O)NCCC(C)C)nc(C)c3c2C)cc1	-20.6%	-11.8%
O=C1CCCN1CCc1cccc2ccccc12	i	2.8%
FC(F)(F)c1nc2ccccc2n1CCNc1nc(CN2CCCCC2)cs1	-0.6%	-0.9%
CN1CCN(S(=O)(=O)c2cccc(C(=O)NCc3ccccc3Cl)c2)CC1	-13.9%	-11.9%
CCCOc1ccccc1N/C(=N/c1nc(C)cc(C)n1)NC(=O)Nc1ccc(Cl)cc1	-8.0%	0.7%
CCOc1ccc(NC(=O)CSc2nc3[nH]ncc3c(=O)[nH]2)cc1	-7.1%	-4.0%
COc1cc(S(=O)(=O)N2CCN(Cc3cccs3)CC2)ccc1NC(C)=O	-21.2%	-3.1%
Cc1cc(OCC(=O)NC(Cc2c[nH]c3ccc(O)cc23)C(=O)O)c2c(C)c(C)c(=O)oc2c1 (centres undefined)	1.9%	0.9%
COc1ccc(NC(=O)CN(C)C(=O)c2cccc(S(=O)(=O)N3CCCc4ccccc43)c2)cc1	?	-29.9%
O=S(=O)(c1cccc(-c2csc(-c3cccnc3)n2)c1)N1CCOCC1	-12.3%	-9.7%
O=C(Cc1ccccc1)c1ccccn1	-2.6%	17.1%
COc1ccc(CCNC(C(=O)Nc2cc(C)cc(C)c2)c2ccccc2)cc1 (centres undefined)	i	-11.9%
NS(=O)(=O)c1ccc(NC(=S)NC(=O)/C=C/c2cccs2)cc1	-3.9%	8.7%
CC(C)CC(=O)N1CC=CC[C@@H](c2ccc(Cl)cc2)N(Cc2ccc(Cl)cc2)C(=O)[C@@H]1Cc1ccccc1	?	-21.8%
O=C(CCN1C(=O)/C(=C/c2ccc(Cl)cc2)SC1=S)Nc1cccnc1	-4.9%	2.5%
O=C(Nc1ccccc1)c1ccccc1OS(=O)(=O)c1ccccc1	-19.2%	-17.2%
CCCCn1nnnc1C(c1ccccc1)N1CCN(c2ncccc2C(F)(F)F)CC1 (centres undefined)	-3.7%	-10.1%
Nc1ccn([C@@H]2O[C@H](CNCC3=CCOc4ccc(O)cc43)[C@@H](O)[C@H]2O)c(=O)n1	-1.9%	-3.3%
O=C(NCC(F)(F)F)c1ccc2sc([C@@H]3O[C@H](CO)[C@H](O)[C@H](O)[C@H]3O)nc2c1	6.4%	7.0%
O=C1CN(C(=O)c2ccc(Cl)nc2)c2ccccc2N1	2.8%	-4.3%

Record cards (already shown):
CC1(C(=O)NS(=O)(=O)c2cccc(OC(F)F)c2)CCN1C(=O)c1ccco1 (centres undefined) across the screens: Vaccinia mCherry = 34.9%[activator]; VACV Venus inh = -12.6%
COc1cc(/C=C2\C(=N)N3N=C(S(C)(=O)=O)SC3=NC2=O)cc(OC)c1OCCOc1ccccc1C across the screens: Vaccinia mCherry = -11.8%; VACV Venus inh = -9.2%

By substructure: those above with a cyano group (three)
SMILES	Vaccinia mCherry	VACV Venus inh
COc1ccc(OC)c(-c2nc3c(C#N)c[nH]n3c2NC2CCCCC2)c1	?	?
CCOC(=O)c1cc(C#N)c(SC(C(=O)N2CCCCC2)c2ccccc2)nc1C (centres undefined)	24.4%	-11.1%
CN(CCC#N)C(=O)COC(=O)c1ccc2c(=O)n3c(nc2c1)CCC3	i	-8.7%

Screening data: PubChem, National Center for Advancing Translational Sciences (NCATS)
